# From PubChem
# Marburg entry inh: blocks Marburg virus binding to or entry into cells; Marburg virus pseudotyped entry inhibition, cell reporter; control for the full effect not named in the record; about a third of the inactives were read at about 46 µM; Potency, µM (top dose mostly 37.8 µM), for the others: at the top dose activity change, negative = inhibition, actives largely listed as inhibitors; actives 1.8% (n = 300,000); active = well fitted inhibition curve with a large enough effect; inconclusive = small, poorly fitted or top-dose-only effect, or effect the other way; inactive = flat fitted curve, though single readings scatter; tested in HEK293 cells; about a fifth of its hits are not listed in these tables; further: on the % scale 0 is the no-effect control and ±100 the full control effect; luciferase read-out
# Cruzain inh noDet: inhibitors of Trypanosoma cruzi cruzain without detergent. P25779. purified cruzain, Z-FR-AMC fluorescence, no detergent. Potency, µM, for the others: max response, negative = inhibition, actives largely listed as inhibitors. actives 2.3% (n = 200,000). AID 1476; active means well fitted curve in the direction sought with a large enough effect; inconclusive means small, poorly fitted or top-dose-only effect, or another doubt; inactive means no such curve, though single readings can be large; an effect the other way counts as inactive or inconclusive;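 further: plate controls were enzyme without inhibitor for no effect and buffer without enzyme for full effect; nearly all actives have a fitted effect of over 40% in size; top concentration of the series not given in the record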
# Target sequence (P25779 123-467 limits assumed): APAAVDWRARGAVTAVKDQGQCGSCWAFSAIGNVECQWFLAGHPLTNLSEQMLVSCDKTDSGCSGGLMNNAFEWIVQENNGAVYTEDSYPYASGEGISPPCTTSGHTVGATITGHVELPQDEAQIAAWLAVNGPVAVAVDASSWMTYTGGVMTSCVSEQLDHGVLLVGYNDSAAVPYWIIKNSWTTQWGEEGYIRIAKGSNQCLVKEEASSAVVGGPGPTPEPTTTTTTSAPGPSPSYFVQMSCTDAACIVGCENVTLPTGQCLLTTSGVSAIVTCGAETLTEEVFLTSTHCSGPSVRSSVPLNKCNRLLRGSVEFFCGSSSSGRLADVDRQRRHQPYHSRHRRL
#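 Detergent-free condition (0.00005% Triton X-100) in acetate buffer pH 5.5 with DTT. 1.5 nM enzyme and compound were pre-mixed 15 min, then 2 uM Z-FR-AMC substrate added; reaction progress from fluorescence change between first and third reads (60 s).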
# NS1 inh: blocks influenza NS1 protein function; AID 2326; Potency, µM (titrated, usually from 46.1 µM), inactives show at the highest dose activity, positive = more growth; actives 0.4% (n = 270,000); S. cerevisiae slowed by influenza A NS1, growth recovery by OD600; further: actives are rising curves; nearly all actives have a fitted effect of over 50% in size
#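 A cell-based growth assay was used: compounds that relieve NS1-induced slow growth of budding yeast raise OD600. Assay medium was yeast nitrogen base with ammonium sulphate and -URA supplement, pH 6.0, with 2% galactose.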
# SARS PLP yeast: inhibitors of SARS-CoV papain-like protease in yeast; S. cerevisiae expressing SARS-CoV PLpro, growth rescue; control for the full effect not named in the record; Potency, µM (doses to about 32.9 µM), inactives show at the highest dose activity, positive = growth rescue; actives 0.19% (n = 330,000); AID 485353; further: 0% is about no effect; nearly all actives have a fitted effect of over 55% in size; growth read by luminescence after 48 h
# StopGo reporter: lowers the luciferase signal of an FMDV 2A StopGo reporter; AID 1159524; human cells with a luciferase reporter of 2A StopGo recoding; control for the full effect not named in the record; Potency, µM (doses to about 57.9 µM), without a hit: top-dose signal change, negative = less light; actives 1.2% (n = 410,000); active = well fitted falling curve with a large enough effect; inconclusive = small, poorly fitted or top-dose-only effect; inactive = no such curve, though single readings can be large or run the other way; tested in HEK293T cells; further: on the % scale 0 is the no-effect control and ±100 the full control effect; nearly all actives have a fitted effect of over 45% in size; luciferase light after 4 h
# Cruzain inh Det: inhibitors of Trypanosoma cruzi cruzain with detergent | actives 0.43% (n = 200,000) | P25779 | Potency, µM, for inactives: max response, negative = inhibition, hits mostly inhibitors | purified cruzain, Z-FR-AMC fluorescence, 0.01% Triton; active means well fitted curve in the direction sought with a large enough effect; inconclusive means small, poorly fitted or top-dose-only effect, or another doubt; inactive means no such curve, though single readings can be large; an effect the other way counts as inactive or inconclusive;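 further: plate controls were neutral wells for no effect and buffer without enzyme for full effect; nearly all actives have a fitted effect of over 40% in size; top concentration of the series not given in the record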
#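 Detergent-containing arm of a paired screen for aggregation-based inhibition: 0.01% Triton X-100 present. Cruzain at 1.5 nM cleaved 2 uM Z-FR-AMC at pH 5.5 with 5 mM DTT; AMC fluorescence gain over 60 s measured activity.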
# LASV entry inh: blocks Lassa virus binding to or entry into cells; Potency, µM (highest dose often 37.9 µM), for the others: at the highest dose activity change, negative = inhibition, most hits filed as inhibitors; AID 540256; Lassa virus pseudotype entry inhibition, cell reporter; control for the full effect not named in the record; actives 1.2% (n = 300,000); active means well fitted inhibition curve with a large enough effect; inconclusive means small, poorly fitted or top-dose-only effect, or effect the other way; inactive means flat fitted curve, though single readings scatter; tested in HEK293 cells; further: on the % scale 0 is the no-effect control and ±100 the full control effect; nearly all actives have a fitted effect of over 50% in size; luciferase read-out
# RE007 growth inh: less growth of the S. pombe RE007 Vpr strain. S. pombe RE007 Vpr strain, BacTiter-Glo ATP luminescence, 24 h; control for the full effect not named in the record. Potency, µM (titrated, usually from 92.2 µM), without a hit: at the top dose activity change, negative = less growth. actives 0.21% (n = 360,000); active = well fitted falling curve with a large enough effect; inconclusive = small, poorly fitted or top-dose-only effect; inactive = no such curve, though single readings can be large or run the other way;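 further: on the % scale 0 is the no-effect control and ±100 the full control effect; nearly all actives have a fitted effect of over 50% in size; the assay follows cell death caused by Vpr and the record does not say whether a fall means rescue or toxicity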
#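 Fission yeast strain RE007, carrying one chromosomally integrated HIV-1 vpr copy, was seeded at OD 0.01 in PMG+AL medium with 23 nL pinned compound. After 24 h at 30 °C and 99% humidity, viability was read by BacTiter-Glo luminescence.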
# Active calls of the source: *; u = inconclusive; x = no result given; & = joins results of further samples; [ ] = dose if it differs, or a comment. Unless noted, the call rests on the fitted dose curve; in most records, active means well fitted rising curve with a large enough effect; inconclusive means small, poorly fitted or top-dose-only effect; inactive means no such curve, though single readings can be large or run the other way. Potency means the concentration at half of the fitted maximal effect.
Compound,Marburg entry inh,Cruzain inh noDet,NS1 inh,SARS PLP yeast,StopGo reporter,Cruzain inh Det,LASV entry inh,RE007 growth inh
CCOC(=O)N1CCN(C(=O)c2cccc(F)c2)CC1,25%,x,6%,0%,-21%,x,18%,-6%
CC1=NN(c2ccc(Br)cc2)C(=O)/C1=C/c1cccs1,-1%,-1%,1%,-5%,9%,-5.1%,1%,7%
COc1cccc(OCC(=O)Nc2ccncc2)c1,-4%[46.1 µM],x,-12%,3%,-13%,x,-11%[46.1 µM],6%
CCN(CC)CCNC(=O)C(=O)Nc1ccc2c(c1)N(S(=O)(=O)c1cccs1)CCC2,u,x,x,-5%,-10%,x,-22%,-6%
Cn1c(SCC(=O)NC2CCCC2)nnc1-c1cccs1,0%[46.1 µM],x,20%,1%,x,x,-3%[46.1 µM],-2%
Cc1cc(OCC(=O)O/N=C(\N)c2ccccc2)ccc1Cl,-1%,-17%,-3%,5%,32%[activator],-7.9%,4%,-1%
CC(NC(=O)C(=O)c1cn(CC(=O)N2CCOCC2)c2ccccc12)c1ccccc1 (stereo unspecified),x,x,-2%,11%,4%,x,x,-4%
CCC(C)N=Cc1c(Nc2ccccc2)nc2c(C)cccn2c1=O (stereo unspecified),x,x,-10%,-4%,u,x,x,-4%
COc1ccc(NC(=O)c2ccc(-c3nc(CSc4ccc(C)cc4)c(C)o3)cc2)cc1Cl,x,u,x,x,u,-2.3%,-4%[46.1 µM],x
COc1ccc(S(=O)(=O)N2CCOCC2)cc1NC(=O)COC(=O)C1CCC1,0%,x,x,5%,-1%,x,1%,6%
COC(=O)c1ccc(N2CCOCC2)c(NC(=O)c2cccs2)c1,-23%,x,0%,1%,-18%,x,12%,17%
CC1(C)Cc2cccc(C(=O)Nc3ccc(F)cc3F)c2O1,x,x,-6%,-1%,-20%,x,x,-11%
CC1CCN(C(=O)c2ccc(N3C(=O)c4ccccc4C3=O)cc2)CC1,u,x,2%,4%,-2%,x,6%,1%
CCC1CCCCN1C(=O)CSc1nnc(-c2ccc(Cl)cc2)o1 (stereo unspecified),x,-25%,-3%,-2%,-9%,2.4%,x,-3%
Cc1cccc(C(=O)OCC(=O)NC23CC4CC(CC(C4)C2)C3)c1O,-6%,x,x,-17%,9%,x,9%,17%
CCOc1ncccc1C(=O)NCCc1ccc(OC)cc1,u,x,-12%,0%,-10%,x,u,14%
Cc1ccc(OCCSc2nc(-c3ccccc3C)nc3cc(=O)[nH]n23)cc1Cl,x,-1%,x,x,-17%,7.0%,19%[46.1 µM],x
O=C(c1ccccc1Cl)N1CCCC(c2nc3c(nnn3Cc3ccc(F)cc3F)c(=O)[nH]2)C1 (stereo unspecified),8%[46.1 µM],-15%,x,x,-11%,-12%,-20%[46.1 µM],x
Cc1c2c(nc3c(C(=O)NC4CCCCC4C)cnn13)CCCC2 (stereo unspecified),x,-1%,-43%,-18%,x,-1.5%,x,x
CCOc1cc(CNc2ccccc2)cc(Br)c1OCc1ccccc1F,-4%,-11%,1%,u,0%,-0.5%,-19%,-7%
Cc1cc(C)n(-c2nc3c(c(=O)[nH]c(=O)n3C)n2C)n1,21%,-5%,6%,-3%,0%,2.9%,13%,6%
O=C(O)C(c1ccccc1)C1(O)CC2CCC1C2 (stereo unspecified),1%,x,x,x,-15%,x,15%,-10%
O=c1cc(SCc2ccccc2)nc[nH]1,0%,x,x,x,-5%,x,-9%,-9%
CCOC(=O)C1C(=O)CC(C)(O)C(C(=O)OCC)C1c1cccc(OC)c1 (stereo unspecified),1%,12%,-3%,8%,x,6.0%,-3%,-5%
COc1ccccc1-n1cnnc1SCC(=O)Nc1ncc(Cl)cc1Cl,-27%[46.1 µM],7%,-3%,7%,-21%,7.3%,-19%,-8%
COc1ccc(CCN2C(=O)NC(NS(=O)(=O)c3ccc(NC(C)=O)cc3)(C(F)(F)F)C2=O)cc1OC (stereo unspecified),24%&-14%[46.1 µM],x,-5%,-1%,-4%&-11%,x,u,119%
Nc1cc(-c2ccc(Cl)cc2)nn1-c1ccccc1,u,x,x,-2%,24%,x,4%[46.1 µM],-8%
C/C(=N\NC(=O)c1ccn(C)n1)c1ccc(NC(=O)c2cccc(F)c2)cc1,u,x,-15%,-9%,7%,x,-22%[46.1 µM],9%
COC(=O)c1ccccc1NC(=O)CCS(=O)(=O)c1ccc(Br)cc1,x,x,-3%,-1%,10%,x,x,3%
CCNC(=O)COc1ncnc2scc(-c3ccc(F)cc3)c12,-12%[46.1 µM],x,x,-2%,37%[activator],x,-12%[46.1 µM],0%
COc1ccc(-n2c(SCC(=O)Nc3cccc(C(=O)O)c3)nnc2-c2ccco2)cc1,18%[46.1 µM],x,14%,-8%,9%,x,12%,-2%
CCOC(=O)c1cc2sccc2n1Cc1ccc(C#N)cc1,-17%,-11%,-10%,-15%,x,-9.0%,14%,17%
O=C1c2oc3ccccc3c(=O)c2C(c2cccc(Br)c2)N1c1ccccn1 (stereo unspecified),x,-12%,x,x,-3%,-1.3%,-3%[46.1 µM],x
Cc1ccc(Cl)cc1NC(=O)C1C2CCC(O2)C1C(=O)O (stereo unspecified),x,x,-2%,4%,4%,x,x,2%
CCOC(=O)NC(=O)/C(C#N)=N/Nc1ccc(F)cc1,12%,2%,1%,-2%,13%,-4.0%,17%,-8%
Cc1nn(CC(=O)NCc2ccccc2F)c(C)c1[N+](=O)[O-],-18%[46.1 µM],x,3%,-1%,28%,x,12%,12%
NC1(C(=O)O)CCc2cc(C(=O)O)ccc21 (stereo unspecified),23%&23%&23%&21%&23%,-6%,-1%,x,-13%,3.1%,-13%,x
Cc1cc(C(=O)CSc2nnc3ccccn23)c(C)n1-c1ccccc1,0.32µM*,1%,9%,8%,3.2µM*,-3.0%,0.89µM*,u
Cc1c(NC(=O)c2ccc(Br)o2)cccc1C(=O)O,15%,-3%,5%,1%,24%,5.1%,12%,2%
Cc1occc1C(=O)NC(C)c1ccc2c(c1)OCO2 (stereo unspecified),5%,-4%,-68%,-22%,-13%,2.2%,-7%,-3%
CCOc1ccc(NC(=O)c2noc3c2CSc2ccccc2-3)cc1,-15%[46.1 µM],u,x,x,7%,0.0%,8%[46.1 µM],x
O=C(O)C(Cc1ccc(OS(=O)(=O)Cc2ccccc2)cc1)NS(=O)(=O)Cc1ccccc1 (stereo unspecified),7%[46.1 µM],x,x,x,-2%,x,-1%[46.1 µM],4%
O=C(COC(=O)c1ccc(S(=O)(=O)N2CCCC2)cc1)NCc1ccc(Cl)cc1,-27%[46.1 µM],u,6%,-2%,18%,2.5%,u,9%
COc1ccccc1CNC(=O)c1ccc(-c2nc(CN3CCc4ccccc43)c(C)o2)cc1,x,u,x,x,u,-2.9%,-19%[46.1 µM],x
Cc1ccc(-c2ccc(=O)n(Cc3c(F)cccc3Cl)n2)cc1,u,x,-6%,0%,-27%,x,-17%,17%
COc1cc2cc(CN(Cc3nnnn3Cc3ccco3)C3CCCCC3)c(=O)[nH]c2cc1OC,u,7.9µM*,-8%,4%,-24%,7.1µM*,-12%,20%
CCOC(=O)c1sc(NC(=O)/C=C/c2c(F)cccc2Cl)nc1C,4%,13µM*,5%,14%,-4%,-7.6%,2%,-5%
CCOC(=O)C1=C(NC(=S)NC(=O)c2ccccc2)c2ccccc2CC1C(C)C (stereo unspecified),0.79µM*,-6%,-15%,-33%,0%,-2.6%,0.89µM*,-2%
COc1ccc(-c2cc(C(=O)Nc3sc4c(c3C#N)CCCC4)c3ccccc3n2)cc1OC,u,-9%,3%,0%,0%,3.2%,2%,7%
COC(=O)C1=C(CCc2ccccc2)NC(=O)NC1c1ccc(Br)cc1 (stereo unspecified),x,x,17%,0%,u,x,x,-4%
CCN(CC(=O)Nc1c(F)cccc1F)C(=O)Cc1ccsc1,21%,x,x,1%,-13%,x,7%,20%
COc1cccc(C(=O)NNc2c3ccccc3nc3ccccc23)c1,-8%,x,-2%,0%,-18%,x,-3%,-6%
Cc1ccc(CNC(=O)Cn2cccc2C(=O)c2ccccc2)cc1,-2%,0%,4%,x,39%[activator],0.3%,18%,15%
O=C(CCn1c(=O)[nH]c2ccsc2c1=O)N1CCN(c2ccc([N+](=O)[O-])cc2)CC1,u,x,-6%,0%,-17%,x,-10%[46.1 µM],-5%
Cn1cc(-c2nnc(-c3ccccc3)o2)c2ccccc21,-5%,u,-3%,3%,16%,-26%,u,10%
COc1cc(NC(=O)CSc2nc3ccccc3c(=O)n2C)ccc1NC(=O)c1ccco1,-11%,13%,2%,u,-3%,-6.4%,u,17%
COc1ccccc1NS(=O)(=O)c1cccc(C(=O)NN)c1,-9%,-2%,18%,2%,3%,1.3%,0%,-4%
CCC(C)NC(=O)c1cc(-c2ccc(OC)cc2)on1 (stereo unspecified),u,-5%,u,-1%,40%[activator],0.4%,u,1%
COc1cc(C(=O)OCC(=O)Nc2ccc(F)cc2F)cc(OC)c1OC,u,4%,-8%,-10%,-9%,-1.8%,-13%,0%[3.69 µM]
CCN(CC)C(=O)C[n+]1cccc(/C=N/O)c1,u,4%,-8%,-17%,-16%,-3.3%,-1%,15%

# Additional entries:
Compound,Marburg entry inh,Cruzain inh noDet,NS1 inh,SARS PLP yeast,StopGo reporter,Cruzain inh Det,LASV entry inh,RE007 growth inh
Cc1ccnc(-n2c(C)nc3ccccc3c2=O)c1,21%,12%,-10%,18%,1%,0.2%,5%,14%
CC(=O)c1ccc(NC(=O)c2ccc3c(c2)N(Cc2cccc(Cl)c2)C(=O)c2ccccc2S3=O)cc1 (stereo unspecified),x,-14%,x,x,-13%,-0.5%,-3%[46.1 µM],x
COCCNC(=O)c1cc(S(=O)(=O)N(C)c2ccccc2OC)ccc1C,8%[46.1 µM],x,-1%,1%,8%,x,1%,-10%
Cc1ccc(N(CC(=O)Nc2c(C)cccc2C)S(C)(=O)=O)cc1,2%,x,7%,3%,-3%,x,u,-4%
